Compound activity deposited in PubChem BioAssay by several laboratories.
MT1-MMP act inh – blockers of MT1-MMP proenzyme processing, primary screen, HT1080 RFP-PRO-GFP cells, GFP/RFP fluorescence. Matrix metalloproteinase-14 (Homo sapiens), P50281. GFP/RFP ratio fluorescence, overnight; percent of plate control window, DMSO zero. AID 651647, 2012. actives 0.061% (n = 360,000). GFP/RFP ratio change, % at 20 µM;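 active = GFP/RFP ratio change of at least 30% with cell ATP level not reduced by more than half and red fluorescence within 50% of control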; also: strong numbers were not always called active
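Material – HT1080 RFP-PRO-GFP cells · Control set – DMSO wells and RFP-L50D-GFP cells · Incubation – overnight cell settling, then overnight compound exposure, 37 °C, 5% CO2 · Compound dosing – single-point 20 µM compound, 1% DMSO · Read-out – GFP/RFP fluorescence ratio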
eIF4H FP inh – human eIF4H binding inhibitors, primary screen, translation initiation inhibitor project, biochemical, uHTS, fluorescence polarization. Eukaryotic translation initiation factor 4H (Homo sapiens), Q15056. eIF4H fluorescence polarization binding assay. inhibition, % at 35 µM. actives 0.94% (n = 290,000). AID 2012, 2009;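 active = 50% or more with normal probe brightness, or confirmed in later tests; inconclusive = above 50% with abnormal brightness, or retests that disagree; inactive = below 50% or failed in later tests; about a fifth of its hits are not listed in these tables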;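 also: calls also rest on retests at 20 µM and on dose response follow-up; 0% = protein and probe with vehicle and 100% = probe without protein; strong numbers were not always called active; many hits fall short of the cut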
HIV Env fusion – inhibitors of HIV-1 Env-driven cell-cell fusion, primary screen, HeLa-JRFL effector, CEM21 target cells, luciferase. inhibition, % at 12.3 µM. actives 1.1% (n = 360,000);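 active = mean replicate inhibition score of at least 50 and every replicate individually at or above 50; inconclusive = only one of the two criteria met; inactive = mean below 50 and not all replicates reaching 50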;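 also: 0% = plate neutral controls and 100% = maraviroc near 300 nM; one replicate is shown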
UUG fidelity – modulators of yeast start codon fidelity, primary screen, whole organism, S. cerevisiae, single point, plate reader; S. cerevisiae UUG-firefly luciferase reporter, luminescence/redox ratio; activity score, % at 18.7 µM; actives 0.13% (n = 350,000); AID 602363, 2012;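 active = replicate mean at a twofold rise or more, about +100% in these data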;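 also: firefly luciferase made from a UUG start codon reports start codon fidelity; reporter light over untreated wells divided by growth signal over untreated wells; some hits fall short of that in this replicate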
PABP polyA inh – PABP poly(A) RNA binding inhibitors, primary screen, biochemical, fluorescence polarization, uHTS | Polyadenylate-binding protein 1 (Homo sapiens), P11940 | inhibition, % at 35 µM | actives 1% (n = 290,000) | AID 2014, 2009;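 active = 50% or more with normal probe brightness, or confirmed in later tests; inconclusive = above 50% with abnormal brightness, or retests that disagree; inactive = below 50% or failed in later tests; about a fifth of its hits are not listed in these tables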;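 also: calls also rest on retests at 20 µM and on dose response follow-up; controls were probe without protein and protein plus probe with vehicle; some compounds called inactive have numbers as strong as hits; many hits fall short of the cut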
CSC inhib – cancer stem cell viability inhibitors, primary screen, luminescence; actives 1.1% (n = 300,000); inhibition, % at 7.5 µM; cancer stem cell-like cells viability; AID 2717, 2010;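 active = mean at 75% or more and at least half the replicates too; inconclusive = mean and replicates disagree; tested in HMLE shEcad cells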;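 also: 0% = median of negative and 100% = median of positive control wells; the first replicate is given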
Rce1 inhib – yeast Rce1p protease inhibitors, primary screen, biochemical, fluorescence, cell-free homogeneous. CAAX prenyl protease 2 (Saccharomyces cerevisiae (strain ATCC 204508 / S288c)), Q03530. yeast membranes, quenched prenylated peptide cleavage fluorescence. actives 0.27% (n = 290,000). calls only;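 active = fall in fluorescence gain of 50% or more versus controls, with final raw signal at or below 3038400; inconclusive = same 50% fall but final raw signal above 3038400; inactive = fall in fluorescence gain under 50%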;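 also: plate controls were neutral control wells for no effect and wells lacking membranes for full effect; tested at 10 µM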
Target sequence (Q03530 whole entry, looked up): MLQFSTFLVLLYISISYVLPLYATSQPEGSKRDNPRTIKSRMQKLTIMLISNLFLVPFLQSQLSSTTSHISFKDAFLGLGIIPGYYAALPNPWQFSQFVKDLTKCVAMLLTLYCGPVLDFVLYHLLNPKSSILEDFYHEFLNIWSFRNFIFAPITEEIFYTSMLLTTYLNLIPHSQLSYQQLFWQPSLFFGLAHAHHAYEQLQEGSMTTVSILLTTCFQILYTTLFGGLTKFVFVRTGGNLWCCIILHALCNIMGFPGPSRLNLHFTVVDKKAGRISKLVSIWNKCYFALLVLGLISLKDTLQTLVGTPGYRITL
eIF4H FP inh retest – recorded beside eIF4H FP inh, whose call it bears; inhibition, %; compound at 20 µM; confirmation average;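 mean of two retest wells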
PABP polyA inh retest – recorded beside PABP polyA inh, whose call it bears; inhibition, %; compound at 20 µM; confirmation repeats;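 mean of two retest wells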
MT1-MMP act inh RFP – recorded beside MT1-MMP act inh, whose call it bears; RFP signal change, %; measured here: RFP expression control read;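 0 = vehicle wells; hits needed this value within 50% of zero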
Numbers without * were called inactive; i = inactive; ? = inconclusive; / = not tested or not shown.

SMILES	MT1-MMP act inh	MT1-MMP act inh RFP	eIF4H FP inh	HIV Env fusion	UUG fidelity	PABP polyA inh	CSC inhib	Rce1 inhib	others
CCc1ccc(C(=O)Nc2nc(C)cs2)s1	-4	-4	-11	-96	-60	7	9	i
C=CCn1c(-c2cccc(OC)c2)n[nH]c1=S	-6	-7	2.5*	-19	0	82*	-25	i	eIF4H FP inh retest=84*;PABP polyA inh retest=77*
O=C(COC(=O)CNS(=O)(=O)c1cccc(F)c1)NCCc1ccccc1	3	1	/	14	-20	/	/	/
Cc1cc(NC(=O)C2CC(c3cccc(Br)c3)=NO2)no1 (stereo unspecified)	2	5	1	/	-22	-6	-19	/
COc1ccc(-c2nnc(SCC3CCCO3)n2C)cc1 (stereo unspecified)	2	1	6	2	/	38	-11	i
CCOC(=O)C1=NN(c2ccccc2)C(c2ccccc2)CC1=O (stereo unspecified)	-10	0	-3	?	-23	-7	1	i
CN1C(=O)C(C)(C)N(C(=O)c2cccc([N+](=O)[O-])c2)c2ccccc21	3	-1	-11	16	-9	-6	2	i
CCCc1nc2oc3c(NCCOCCO)ncnc3c2c2c1COC(C)(C)C2	8	3	-5	-30	-8	6	-12	i
CN(C)N1C(=O)CC(N2CCCCC2)C1=O (stereo unspecified)	0	7	-1	2	-16	0	-20	i
C/C(=N/NC(=O)c1cccs1)c1ccc(NC(=O)COc2ccc(Cl)cc2Cl)cc1	-3	-5	-2	-28	-17	9	22	/
O=C(Nc1ccc(N2CCN(Cc3ccccc3Cl)CC2)cc1)c1cccnc1	5	-4	-4	/	-4	8	15	i
NC(=O)C1(NC(=O)[C@@H]2CC3(CC(c4cccc(NC(=O)c5cc([N+](=O)[O-])cc([N+](=O)[O-])c5)c4)=NO3)CN2C(=O)c2ccccc2)CC1 (stereo partly specified)	2	-3	1	-6	-2	42	8	i
COc1ccc(NC2CCCN(C(=O)C3(C)CCCCC3)C2)cc1 (stereo unspecified)	-1	0	-4	20	-10	10	-12	i
Cc1ccc(NC(=O)COC(=O)c2cc(=O)c3ccccc3o2)cc1F	-2	0	/	/	0	/	-6	/
C[C@H]1Cn2cnc(C(=O)Nc3cccc(Cl)c3)c2C(=O)N1	-22	-16	/	31	-12	/	/	/
CC(Sc1nnc(C2CC2)n1C1CC1)C(=O)Nc1cccc(S(=O)(=O)N2CCOCC2)c1 (stereo unspecified)	-3	-1	/	5	1	/	-4	/
Cc1nn(C)cc1CN1CCC(CO)(CCOc2ccccc2)CC1	3	0	-5	2	/	-5	-5	i
COc1ccc(Cc2nn3c(-c4ccccc4Br)nnc3s2)cc1	-6	-3	-11	/	-8	-3	0	i
Cc1ccc(CNc2nc(NC(C)C)nc3ccsc23)c(C)c1	3	-13	/	0	-8	/	/	/
CCN(CC)S(=O)(=O)N1CCC(C(=O)NCC2COc3ccccc3O2)CC1 (stereo unspecified)	8	2	12	/	/	-2	-4	i
Cc1cc(N)n(-c2nc3ccccc3s2)n1	0	1	-10	-137	/	0	15	i
CN1CCC(=O)N(CCOc2ccccc2)CC1	-1	3	-11	-21	0	-16	-4	i
CCOC(=O)C1=C(C)NC(C)=C(C(=O)OCC)C1/C=C/c1ccccc1	-15	-8	-4	/	-5	-2	12	i
Cc1ccc(CSCc2ccc(C(=O)NCC3CCCO3)o2)cc1 (stereo unspecified)	-5	2	5	11	-4	4	-12	i
CCN(C[C@H]1N[C@@](Cc2ccccc2)(C(=O)OC)[C@H]2C(=O)N(Cc3ccccc3)C(=O)[C@@H]12)C(=O)C1CCCCC1	-5	-9	/	-189	-14	/	/	/
CCCc1nnc(NC(=O)CCC(=O)NCc2ccccc2)s1	3	0	/	-3	-27	/	-3	i
O=C(COCC(=O)N/N=C/c1ccccc1F)N/N=C/c1ccccc1F	-2	6	16	6	2	11	0	i
CCn1c(SCC(=O)O)nnc1C1CCCCC1	19	2	-19	/	-3	4	-14	i
CCOC(=O)C1CN(S(=O)(=O)c2ccc(C)cc2)c2ccccc2O1 (stereo unspecified)	-3	-3	4	10	-10	4	11	i
CCOC(=O)CCCCC(=O)c1[nH]c(=O)[nH]c1Cn1ccnc1	-9	0	-6	/	-6	-10	-10	i
Cc1nc2ccccc2n1CCCOc1ccccc1	-1	-15	-2	/	-42	-1	-5	i
COc1cccc(OCC(O)CN2CCN(CCN3C(=O)c4cccc5cccc(c45)C3=O)CC2)c1 (stereo unspecified)	5	-1	23	-57	/	78	23	i	eIF4H FP inh retest=-2;PABP polyA inh retest=2
O=C(Cn1nc(Cc2cccnc2)c2ccccc2c1=O)NCC1CCCO1 (stereo unspecified)	-4	3	-2	-14	-16	-2	-6	i
O=C(CC1C(=O)NCCN1CC1CCCCC1)NCCc1ccc(F)cc1 (stereo unspecified)	1	1	-4	-7	/	-2	-18	i
CCOP(=O)(OCC)C(Nc1cccc(C(F)(F)F)c1)c1ccc(F)cc1 (stereo unspecified)	-5	-4	-3	18	/	-13	9	i
Cc1ccc(NC(=O)CSc2nc(C)c(C)c(C)n2)c([N+](=O)[O-])c1	2	1	-9	-3	/	-9	-10	i
COc1ccc(N2CCN(C(=O)c3cccc(N4C(=O)C5C6C=CC(C6)C5C4=O)c3)CC2)cc1 (stereo unspecified)	-1	-2	4	-1	-5	-4	13	i
Cc1cccc(N(C(=O)Cn2nnc3ccccc32)C(C(=O)NC(C)(C)C)c2ccsc2)c1C (stereo unspecified)	4	-4	-9	/	-17	-2	-6	i
Cc1ccc2[nH]cc(S(=O)(=O)c3ccc(F)cc3)c(=O)c2c1	0	-7	3	-1	/	12	-15	i
COC(=O)c1ccc(C(=O)OC)c(NC(=O)C(C)(C)C)c1	1	0	0	-11	/	11	7	i
Cc1ccc2c(c1)cc(CN(Cc1ccc3c(c1)OCO3)C(=O)c1cnccn1)c1nnnn12	-3	-7	0	-25	-8	6	-1	i
Cc1cc(NC(=O)/C=C/c2ccc(Br)cc2)no1	-4	-7	-6	15	/	-17	40	i
O=C(COC(=O)CSc1ccc(F)cc1)NNC(=O)c1ccc([N+](=O)[O-])cc1	1	1	/	-91	-1	/	8	i
N/C(=N\OC(=O)c1ccc(OCC(F)(F)F)nc1)c1ccc(Cl)cc1	3	-1	-4	-2	-14	-2	-9	i
CCOc1ccc(NC(=O)NC(=O)N(C)S(=O)(=O)c2ccc(C)cc2)cc1	5	5	-1	-2	-14	-2	-8	i
O=C(CSc1nc(=O)n2cc(Cl)ccc2n1)Nc1cccc2ccccc12	-7	7	/	-51	-14	/	/	i
C=C(C)c1cccc(C(C)(C)NC(=O)NC2CCN(Cc3ccccc3)CC2)c1	2	-3	14	-41	1	11	4	i
O=C(N/N=C\c1cc(Br)ccc1O)c1ccc(S(=O)(=O)N2CCCCC2)cc1	0	0	-4	/	/	-8	104*	i
Cc1nc2ccccc2c(=O)n1NC(=O)Cc1ccc([N+](=O)[O-])cc1	0	0	-2	-1	/	-3	/	i
COc1ccc(N2C(=O)c3ccccc3NC2c2cccnc2)cc1 (stereo unspecified)	0	2	3	-4	/	36	-2	i
CN(CC(=O)Nc1ccc(F)cc1)C(=O)CSc1nncs1	3	3	-21	2	-14	-2	-6	i
CC(C)(C)C1CCC2(CC1)C(C#N)=C(SCC(=O)Nc1ccccc1)NC(=O)C2C#N (stereo unspecified)	-6	-35	-11	/	9	-4	66	i
Cc1ccc(NC(=O)C2CCN(S(=O)(=O)c3ccc4c(c3)oc(=O)n4C)CC2)cc1	2	2	/	0	-5	/	7	i
CC(NS(=O)(=O)c1ccc(NC(=O)N2CCCCC2)cc1)c1ccccc1 (stereo unspecified)	1	-6	-4	6	25	-6	-10	i
CC(C)(C)c1cc2ncnc(N3CCCCC3)c2s1	2	-3	7	/	-7	10	-11	i
CC1CCN(S(=O)(=O)c2ccc3c(c2)c(=O)c(C(=O)NC2CCCC2)cn3C)CC1	-1	-8	0	-62	10	-12	-2	i
COC(=O)CN1C(=S)N(Cc2ccccc2)C(=O)C1CC(=O)Nc1ccc(Br)cc1 (stereo unspecified)	2	0	-8	/	-4	-2	24	i
COc1ccccc1C(=O)Nc1ccc(C(=O)N2CCCCC2)cc1	0	-1	-3	9	-2	12	4	i
CCNC(=S)N(Cc1ccco1)Cc1cc2cc(OCC)ccc2[nH]c1=O	-2	-3	12	11	/	-6	25	i
Fc1cccc(-c2cc3nc4c(c(NCc5ccco5)n3n2)CCCC4)c1	-10	-10	-5	/	-31	-7	93*	i

Continued, starting with the last two of the part before.
SMILES	MT1-MMP act inh	MT1-MMP act inh RFP	eIF4H FP inh	HIV Env fusion	UUG fidelity	PABP polyA inh	CSC inhib	Rce1 inhib	others
CCNC(=S)N(Cc1ccco1)Cc1cc2cc(OCC)ccc2[nH]c1=O	-2	-3	12	11	/	-6	25	i
Fc1cccc(-c2cc3nc4c(c(NCc5ccco5)n3n2)CCCC4)c1	-10	-10	-5	/	-31	-7	93*	i
O=c1oc2ccccc2c(O)c1CN1CCCCC1	-6	6	-6	-25	-13	6	-10	i
Cn1c(C(=O)NCC2CCCO2)cc2c(=O)n(C)c3ccccc3c21 (stereo unspecified)	5	2	7	9	-6	2	4	i
Nc1nc(C23CC4CC(CC(Cl)(C4)C2)C3)cs1	-1	3	2	-23	-13	-1	-4	i
Cc1ccc(S(=O)(=O)Nc2nccs2)cc1[N+](=O)[O-]	-3	1	1	7	/	7	-2	i
CCCc1nc(N2CCCC2)c(C#N)c2c1CCCC2	3	-1	-12	-29	-4	0	5	i
CN(C)C(CNC(=O)c1cccs1)c1ccco1 (stereo unspecified)	1	2	/	2	-36	/	/	/
CCOC(=O)C1CCCN(C(=O)c2c(-c3ccccc3Cl)noc2C)C1 (stereo unspecified)	2	11	-6	-12	/	-8	-2	i
CC(NC(=O)CCCCCCN1C(=O)c2ccccc2C1=O)c1ccc2c(c1)CCCC2 (stereo unspecified)	-2	-4	-3	24	/	-3	-5	i
C[C@@]12C(=O)N(CC3CCCO3)CC(=O)N1[C@H]1c3cc(Cl)ccc3OC[C@@H]1[C@@H]2c1ccccc1 (stereo partly specified)	-5	-6	/	80*	1	/	-3	/
CSc1ccc(NC(=O)Nc2cccn(Cc3ccccc3F)c2=O)cc1	-23	-41	6	13	/	-2	6	i
O=c1[nH]c(C2CCN(S(=O)(=O)c3ccc(C(F)(F)F)cc3)CC2)nc2c1nnn2Cc1ccccc1	-2	-9	105	-9	-13	11	5	i	eIF4H FP inh retest=-1;PABP polyA inh retest=14
Cc1ccc(NC(=O)Cc2nnc(SCC(=O)c3ccc(Br)cc3)n2C)cc1	-2	-3	1	30	-15	7	7	i
NC1=NC(=O)C(Cc2cccc(Cl)c2Cl)S1 (stereo unspecified)	-7	1	4	/	-17	4	14	i
